Bioassay records from PubChem BioAssay.
FEN1 inhibitor = qHTS Assay for the Inhibitors of Human Flap endonuclease 1 (FEN1) | 390,000 tested, 0.35% active | Recombinant FEN1 flap cleavage, fluorescence, 15 min | AID 588795, 2011 | Potency, µM (series often up to 114 µM), inactives show at the top dose activity change, negative = inhibition, most hits filed as inhibitors; further: nearly all actives have a fitted effect of over 65% in size
Target sequence (P39748 whole entry, looked up): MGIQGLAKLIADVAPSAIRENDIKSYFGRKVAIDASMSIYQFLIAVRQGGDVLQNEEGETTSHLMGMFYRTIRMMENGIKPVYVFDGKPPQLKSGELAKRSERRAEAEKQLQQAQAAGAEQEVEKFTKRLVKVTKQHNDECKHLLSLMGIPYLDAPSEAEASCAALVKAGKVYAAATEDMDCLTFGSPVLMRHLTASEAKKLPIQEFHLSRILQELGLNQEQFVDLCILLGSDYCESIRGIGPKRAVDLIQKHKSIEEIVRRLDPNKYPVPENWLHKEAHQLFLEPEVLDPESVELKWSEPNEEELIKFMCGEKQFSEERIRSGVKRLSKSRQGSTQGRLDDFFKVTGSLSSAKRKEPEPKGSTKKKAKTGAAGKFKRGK
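FEN1 at 10 nM preincubated with compounds 15 min at room temperature, then flap DNA substrate added at 50 nM final. Signal read at 0 and 15 min; concentration-response fitted with four-parameter Hill equation.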
N370S GC mod = qHTS Assay for Inhibitors and Activators of N370S glucocerebrosidase as a Potential Chaperone Treatment of Gaucher Disease; 330,000 tested, 0.092% active; Potency, µM (top dose mostly 59.4 µM), for inactives: at the top dose activity change, negative = inhibition, actives largely listed as inhibitors; AID 2101, 2009; N370S GC spleen homogenate, 4MU-glucoside fluorescence;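 further: 0% = full enzyme activity and -100% = no enzyme basal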
* = called active by the depositor; ? = inconclusive; . = no result given; & = joins results of further samples; [ ] = dose if it differs, or a comment. The call rests on the fitted dose curve; in most records, active means well fitted curve in the direction sought with a large enough effect; inconclusive means small, poorly fitted or top-dose-only effect, or another doubt; inactive means no such curve, though single readings can be large; an effect the other way counts as inactive or inconclusive. Unless noted, on the % scale 0 is the no-effect control and ±100 the full control effect; potency means the concentration at half of the fitted maximal effect.

SMILES	FEN1 inhibitor	N370S GC mod
COC(=O)c1cc(S(=O)(=O)N2CCN(c3cccc(C)c3)C(C)C2)c[nH]1 (centres undefined)	-7%&2%	-7%
CCOC(=O)CSc1cc(=O)n(C)c2cc(Cl)ccc12	-4%	-19%
CCCN(c1ccccc1F)S(=O)(=O)c1cc(-c2cc(C)no2)ccc1OC	-12%	-19%
Oc1cccnc1SCc1ccccc1	-4%	-26%
O=C(CN1C(=O)NC2(CCCC2)C1=O)OCc1ccccc1	2%	.
COc1ccc(F)c(CN2CCCC(CNS(=O)(=O)c3cccc4cccnc34)C2)c1 (centres undefined)	-9%	?
CC1(C(=O)O)C=CCN1C(=O)c1ccccc1 (centres undefined)	14%	-11%&2%
CC(C)CN(CC(C)C)C1=N/C(=C\c2ccco2)C(=O)N1c1ccccc1	-8%	15%
N#C/C(=C/c1cc[nH]c1)C(N)=S	-5%	-6%
COc1ccc(-n2c(C)cc(C(=O)CN3CCC(C)CC3)c2C)cc1	19%	-10%
CCOC(=O)c1oc2c(c1C)-c1nn(Cc3ccccc3Cl)cc1CC2	-19%	.
COc1ccc(C(=S)N2CCN(c3ccccc3C)CC2)cc1	3%	13%
Nc1cc(Cl)nc(N/N=C/c2ccccc2[N+](=O)[O-])n1	-18%	-3%
COc1ccc(S(=O)(=O)N2CCN(C)CC2)cc1C(=O)N1CCCCC1	-2%	-7%
CCOC(=O)c1ccc(-n2c(N)c(C(=O)NCC3CCCO3)sc2=S)cc1 (centres undefined)	-8%	-6%
CC(NC(=O)c1ccc(F)cc1)c1nc2ccccc2n1Cc1ccccc1F (centres undefined)	2%	6%
O=C(NC1CCCC1)c1cccc(Oc2ccccc2)c1	12%	-1%
CC1CCN(S(=O)(=O)c2cccc(C(=O)Nc3ccccn3)c2)CC1	-15%	-15%
COC(=O)[C@@]1(Cc2ccccc2)[C@H]2c3cc(C(=O)N(C)C)n(Cc4ccccc4)c3C[C@H]2CN1C(=O)c1ccccc1	.	-14%
COc1cccc(C(=O)N2CCN(CCCc3ccccc3)CC2)c1OC	6%	-2%
CCC(C)[C@H](NC(=O)NCc1ccccc1Cl)C(=O)OC (some centres undefined)	-2%	15%
CC/C(=N/NC(=O)CCC(=O)Nc1ccccc1OC)c1ccccc1	-1%	6%
COC(=O)c1[nH]c2ccccc2c1NC(=O)C(C)N1CCN(C(=O)c2ccco2)CC1 (centres undefined)	-7%	-9%
CCCCN(C(=O)c1c(C)[nH]c(C(=O)OCC)c1C)c1ccccc1	-12%	-11%
O=C(CNC(=O)c1ccccc1)NCC(=O)OCC(=O)c1ccccc1	3%	1%
O=C(CCC(=O)c1cccs1)NCC(=O)Nc1ccc(F)c(F)c1F	-4%	1%
COc1ccc(-c2nnn(CC(=O)N3CCN(c4ccccc4OC)CC3)n2)cc1OC	-5%	7%
Cc1cc(C)c(NC(=O)c2cc(=O)c3ccccc3o2)c(C)c1	13%	-3%
O=C(N/N=C/c1ccccc1)c1ccco1	7%	1%
NC(=O)C1(N2CCCCC2)CCN(C(=O)NC2CCCCC2)CC1	-5%	-2%
O=C(NC1CCCC1)c1ccc2c(=O)n(Cc3ccccc3)c(SCc3ccccc3)nc2c1	12%	.
O=C(NNC(=S)NC1CC2C=CC1C2)c1cccnc1 (centres undefined)	2%	?
CCOC(=O)c1c(C)nc(-c2ccccc2)nc1NC(C)=O	-1%	8%
S=C(NC1CCCCC1)N1CCC([C@H]2C=NC=N2)CC1	.	-9%[21.6 µM]
Cc1ccc(C)c(S(=O)(=O)Nc2ccc(C(=O)N3CC(C)OC(C)C3)cc2)c1 (centres undefined)	-18%	.
Cc1ccc(C(=O)NCCN2C3=NC[C@@H](Cc4ccccc4)N3C[C@H]2Cc2ccc(O)cc2)cc1Br	-7%	-26%
CCN(CC)C(=O)C1=C(C)Nc2nc3ccccc3n2C1c1ccc(Br)cc1 (centres undefined)	-4%	.
CCN(CC)S(=O)(=O)c1ccc(NC(=O)c2cccc3c2C(=O)N(CCOC)C3)cc1	-7%	26%
CN(C)CCCN(C(=O)C1=COCCO1)c1nc2ccc(Br)cc2s1	13%	-22%
CCOC(=O)N1CCC(NC(=O)c2cc3c(-c4ccc(Cl)cc4)nn(C)c3s2)CC1	0%	-7%
COc1ccc(C)cc1NC(=O)C(=O)N1CCCC1	0%	2%
CO/N=C/NC(=O)c1c(OC)ccnc1Oc1ccccc1	3%	-5%
COc1ccccc1CNC(=O)COC(=O)c1ccccc1-c1ccccc1	-11%	?
COc1ccc(C(=O)Nc2ccc([N+](=O)[O-])cn2)cc1OC	-7%	-8%
O=C(O)CN1C(=O)COc2ccc(S(=O)(=O)N3CCCCCC3)cc21	-1%	-2%

Laid out differently: entries from further up
Every second line gives: FEN1 inhibitor | N370S GC mod
> S=C(NC1CCCCC1)N1CCC([C@H]2C=NC=N2)CC1
  . | -9%[21.6 µM]
> CO/N=C/NC(=O)c1c(OC)ccnc1Oc1ccccc1
  3% | -5%
> COc1ccc(C)cc1NC(=O)C(=O)N1CCCC1
  0% | 2%
> CCOC(=O)c1c(C)nc(-c2ccccc2)nc1NC(C)=O
  -1% | 8%
> CN(C)CCCN(C(=O)C1=COCCO1)c1nc2ccc(Br)cc2s1
  13% | -22%
> O=C(NC1CCCC1)c1ccc2c(=O)n(Cc3ccccc3)c(SCc3ccccc3)nc2c1
  12% | .
> CCN(CC)C(=O)C1=C(C)Nc2nc3ccccc3n2C1c1ccc(Br)cc1 (centres undefined)
  -4% | .

Carrying on:
SMILES	FEN1 inhibitor	N370S GC mod
N#Cc1c(NC(=O)CSc2nnc(-c3ccncc3)n2CC2CCCO2)sc2c1CCCC2 (centres undefined)	-8%	3%
c1ccc(-c2nnc(-c3ccccc3)o2)cc1	21%	7%
CC(=O)c1ccc(N2CCN(C(=O)Nc3cn(CC(C)C)c(=O)c4ccccc34)CC2)cc1	6%	.
COc1ccc(C(=O)NN)cc1COc1ccc(Br)cc1	1%	6%
S=c1[nH]nc(-c2cc(-c3ccccc3)n[nH]2)n1/N=C/c1ccc(Br)s1	?	-5%
O=C(Oc1ccc(-c2nnco2)cc1)c1ccco1	-16%	-1%
O=C(c1ccco1)N1CCN(C(=O)c2sccc2-c2ccccc2)CC1	8%	4%
CC(C)c1ccc(/C=C2\SC(=O)N(CC(=O)NC3C=CS(=O)(=O)C3)C2=O)cc1 (centres undefined)	0%	-25%
O=C(Nc1ncn[nH]1)c1ccc(Cl)c(S(=O)(=O)N2CCCCCC2)c1	-5%	5%
CCCCN(CC)CCCNC(=O)C1c2ccccc2C(=O)N(C)C1c1cn(C)c2ccccc12 (centres undefined)	11%	.
Cc1cnc2c(c1SCC(=O)Nc1ccc(F)cc1F)c(=O)n(C)c(=O)n2C	-3%	.
Cc1cc(=O)n2nc(N3CCC(C(=O)NCc4ccccc4Cl)CC3)sc2n1	22%&2%	-4%
CCOC(=O)C1=C(CC)Nc2ccccc2N=C1NC(=O)c1oc2ccccc2c1C	-11%	13%
Cn1cccc1C(C(=O)NC1CCCCC1)N(C(=O)Cc1cccs1)c1ccc2c(c1)OCO2 (centres undefined)	5%	8%
O=C(NC(=S)Nc1cc(Cl)ccc1N1CCOCC1)c1ccccc1[N+](=O)[O-]	0%	?

Copied from the list.
Cc1cc(=O)n2nc(N3CCC(C(=O)NCc4ccccc4Cl)CC3)sc2n1 @ FEN1 inhibitor: 22%&2%
COc1ccc(C(=O)NN)cc1COc1ccc(Br)cc1 @ N370S GC mod: 6%

Next section:
SMILES	FEN1 inhibitor	N370S GC mod
Cc1c(OC(C)C(=O)NCC(O)c2ccccc2)ccc2c3c(c(=O)oc12)CCC3 (centres undefined)	-1%	?
CCS(=O)(=O)N1CCN(C(=O)COc2ccc(-c3ccccc3)cc2)CC1	-7%	6%
Cn1c(-c2cnn(-c3ccccc3)c2-n2cccc2)n[nH]c1=S	20%	-6%
C=CCNC(=S)N/N=C(\C)c1cccnc1	-25%	1%
COC(=O)c1ccccc1C(=O)N1CCCC(CCC(=O)NCc2ccc(F)c(F)c2)C1 (centres undefined)	-3%	25%
COc1cc(/C=C(\C#N)C(=O)Nc2ccccc2F)ccc1OCCN1CCOCC1	2%	-11%
COc1ccc(S(=O)(=O)N(CCc2ccccc2)CC(=O)NCc2ccccc2)cc1	-3%	.
OCC1(Cc2ccccc2)CCN(Cc2ccc(-c3ccco3)cc2)CC1	-1%	?
O=C(Nc1ccccc1C(F)(F)F)c1ccccn1	-9%	-27%
CC(=O)Oc1c(S(=O)(=O)c2ccc(C)cc2)c(C)nn1-c1ccccc1	-1%	-4%
O=C1c2ccccc2C(=O)N1OCc1ccccc1	0%	-2%
CNC1=CC(=O)CC(c2ccccc2)C1 (centres undefined)	14%	2%
COc1ccccc1OCCNC(=O)Cc1ccc(Cl)c(Cl)c1	2%	-10%
CC(C)CCN(C(=O)c1cn2ccccc2n1)c1c(N)n(Cc2ccccc2)c(=O)[nH]c1=O	-5%	-10%
O=C(CSc1cn(Cc2ccccc2)c2ccccc12)N1CCOCC1	13%	5%

Overlap with the part before: five entries, followed by the next part.
SMILES	FEN1 inhibitor	N370S GC mod
O=C1c2ccccc2C(=O)N1OCc1ccccc1	0%	-2%
CNC1=CC(=O)CC(c2ccccc2)C1 (centres undefined)	14%	2%
COc1ccccc1OCCNC(=O)Cc1ccc(Cl)c(Cl)c1	2%	-10%
CC(C)CCN(C(=O)c1cn2ccccc2n1)c1c(N)n(Cc2ccccc2)c(=O)[nH]c1=O	-5%	-10%
O=C(CSc1cn(Cc2ccccc2)c2ccccc12)N1CCOCC1	13%	5%
CC(=O)O/N=C(/C)c1ncc(C(F)(F)F)cc1N1CCOCC1	-2%	.
Cc1ccc(CNC(=O)Cc2ccc(-n3c(=O)[nH]c4ccsc4c3=O)cc2)cc1	2%	-1%
CCOC(=O)c1[nH]c(C)c(CN(C(C)=O)c2ccc(OCC)cc2)c1C	-1%	-14%
COc1ccccc1N1CCN(c2ccc(-c3ccccc3)nn2)CC1	-6%	6%
CCN(CC)S(=O)(=O)c1ccc2nnn(O)c2c1	0%	12%
NC(=O)c1ccc(-n2nnnc2SCC(=O)Nc2ccc(N3CCOCC3)c(Cl)c2)cc1	1%	-4%
CC1Sc2ccc(C(=O)OCc3ccccc3Cl)cc2NC1=O (centres undefined)	-19%	-3%
CC(C(=O)NCc1ccc(Cl)cc1)n1cccc1C(=O)c1ccccc1 (centres undefined)	-3%	-6%
COC(=O)c1c(Oc2nc(OC)cc(OC)n2)cccc1Oc1nc(OC)cc(OC)n1	-2%	-13%
CN1CCc2c(sc(N)c2C(=O)O)C1	0%	-1%
Cc1cccc(C)c1OCC(=O)N/N=C/c1cc2c(cc1[N+](=O)[O-])OCO2	-1%	13%
O=C(c1cc2cc(Br)ccc2o1)N1CCOCC1	-1%	6%
C[C@H](NC(=O)[C@@H]1Cc2ccccc2CN1C(=O)OC(C)(C)C)C(=O)NC1CCCC1	20%	5%
COCCCNC(=O)CSC1=Nc2ccccc2C2=NC(c3ccccc3)C(=O)N12 (centres undefined)	0%	14%
COc1ccc(C(=O)n2nc(-c3ccc(Cl)cc3)nc2N)cc1OC	-11%	13%
O=[N+]([O-])c1ccccc1S(=O)(=O)Oc1ccc(C(=S)N2CCOCC2)cc1	-12%	-5%
O=c1[nH]cnc2scc(-c3cccs3)c12	-8%	-3%
COc1cc(OC)cc(C(=O)N2CCC(N3CCN(c4ccccc4)CC3)CC2)c1	5%	0%
CCc1cc2c(cc3c(=O)n(CC(=O)NCCOC)nc(CC)n32)s1	3%	.
Cc1ccc(S(=O)(=O)c2nnn3c2nc(Nc2cccc(C)c2)c2ccccc23)cc1	0%	8%
CCC(C(=O)N1CCN(c2cccc(Cl)c2)CC1)c1ccccc1 (centres undefined)	-15%	10%
Cc1nnc(SCC(=O)Nc2ccc(N3CCOCC3)cc2)n1Cc1ccccc1	5%	.
O=C(Nc1ccccc1)c1ccc[nH]1	17%	2%
CCc1ccc(N2CC(C(=O)NCC(C)(C)N3CCOCC3)CC2=O)cc1 (centres undefined)	-3%	.
CCOc1ccc(NC(=O)C2CC(=O)N(CCc3ccc(OC)c(OC)c3)C2)cc1OCC (centres undefined)	-2%	.
Cn1c(NC(=O)Cc2ccc(F)cc2)cc(=O)n(C)c1=O	-5%	?
O=C(O)Cc1ccc(NC(=O)CCN2C(=O)c3ccc([N+](=O)[O-])cc3C2=O)cc1	-1%	7%
CCCCN1C(=O)C(=O)N(CC(=O)Nc2cc(Cl)ccc2OC)C1=O	14%	.
CC1=C(C(=O)Nc2cccnc2)C(c2ccc(C(C)C)cc2)n2ncnc2N1 (centres undefined)	22%	-2%
COc1ccc(C2=NN(C(C)=O)C(c3cn(-c4ccccc4)nc3-c3cccs3)C2)cc1 (centres undefined)	3%	.
COc1ccc(NC(=O)CN2C(=O)C(c3ccc(C)cc3)=NC23CCCCCC3)cc1Cl	-17%	.

Some of the compounds tested; most or all hits stand in other tables.
